Assay outcomes (PubChem BioAssay)
Env fusion inh: inhibitors of HIV-1 Env-driven cell-cell fusion, primary screen, HeLa-JRFL effector, CEM21 target cells, luciferase. AID 651610, 2012. 1.1% of 360,000 active. inhibition, % at 12.3 µM;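 active = mean replicate inhibition score of at least 50 and every replicate individually at or above 50; inconclusive = only one of the two criteria met; inactive = mean below 50 and not all replicates reaching 50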;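 also: 0% = plate neutral controls and 100% = maraviroc near 300 nM; one replicate is shown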
PABP FP inh: PABP poly(A) RNA binding inhibitors, primary screen, biochemical, fluorescence polarization, uHTS. Polyadenylate-binding protein 1 (Homo sapiens), P11940. inhibition, % at 35 µM. 1% of 290,000 active. AID 2014, 2009;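 active = 50% or more with normal probe brightness, or confirmed in later tests; inconclusive = above 50% with abnormal brightness, or retests that disagree; inactive = below 50% or failed in later tests; about a fifth of its hits are not listed in these tables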;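 also: calls also rest on retests at 20 µM and on dose response follow-up; controls were probe without protein and protein plus probe with vehicle; some compounds called inactive have numbers as strong as hits; many hits fall short of the cut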
Target sequence (P11940 whole entry, looked up): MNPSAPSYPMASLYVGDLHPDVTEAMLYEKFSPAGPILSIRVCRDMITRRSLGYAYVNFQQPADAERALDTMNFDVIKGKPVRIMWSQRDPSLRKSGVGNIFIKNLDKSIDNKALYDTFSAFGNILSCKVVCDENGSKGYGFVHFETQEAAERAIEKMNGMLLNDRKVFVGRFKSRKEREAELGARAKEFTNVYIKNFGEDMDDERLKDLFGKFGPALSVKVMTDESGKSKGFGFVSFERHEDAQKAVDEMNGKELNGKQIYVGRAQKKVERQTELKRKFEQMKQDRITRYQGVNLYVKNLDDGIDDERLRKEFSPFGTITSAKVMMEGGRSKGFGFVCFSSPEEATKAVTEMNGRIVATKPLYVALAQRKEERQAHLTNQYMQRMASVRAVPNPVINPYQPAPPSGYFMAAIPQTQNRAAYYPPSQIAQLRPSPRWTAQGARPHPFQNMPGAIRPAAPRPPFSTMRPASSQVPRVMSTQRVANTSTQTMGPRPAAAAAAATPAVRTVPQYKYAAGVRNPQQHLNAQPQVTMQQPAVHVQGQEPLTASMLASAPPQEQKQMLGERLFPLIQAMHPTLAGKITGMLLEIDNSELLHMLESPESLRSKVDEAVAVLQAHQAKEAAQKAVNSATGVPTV
eIF4H inh: human eIF4H binding inhibitors, primary screen, translation initiation inhibitor project, biochemical, uHTS, fluorescence polarization; 0.94% of 290,000 active; eIF4H fluorescence polarization binding assay; Eukaryotic translation initiation factor 4H (Homo sapiens), Q15056; inhibition, % at 35 µM;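 active = 50% or more with normal probe brightness, or confirmed in later tests; inconclusive = above 50% with abnormal brightness, or retests that disagree; inactive = below 50% or failed in later tests; about a fifth of its hits are not listed in these tables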;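 also: calls also rest on retests at 20 µM and on dose response follow-up; 0% = protein and probe with vehicle and 100% = probe without protein; strong numbers were not always called active; many hits fall short of the cut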
MT1-MMP act inh: blockers of MT1-MMP proenzyme processing, primary screen, HT1080 RFP-PRO-GFP cells, GFP/RFP fluorescence | 0.061% of 360,000 active | GFP/RFP ratio fluorescence, overnight; percent of plate control window, DMSO zero | GFP/RFP ratio change, % at 20 µM;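 active = GFP/RFP ratio change of at least 30% with cell ATP level not reduced by more than half and red fluorescence within 50% of control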; also: strong numbers were not always called active
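Read-out: GFP/RFP fluorescence ratio; Test system: RFP-PRO-GFP reporter HT1080 cells; Compound dosing: single-point 20 µM compound, 1% DMSO; Times: overnight compound exposure at 37 °C.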
UUG fidelity: modulators of yeast start codon fidelity, primary screen, whole organism, S. cerevisiae, single point, plate reader; S. cerevisiae UUG-firefly luciferase reporter, luminescence/redox ratio; activity score, % at 18.7 µM; 0.13% of 350,000 active; AID 602363, 2012;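 active = replicate mean at a twofold rise or more, about +100% in these data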;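 also: firefly luciferase made from a UUG start codon reports start codon fidelity; reporter light over untreated wells divided by growth signal over untreated wells; some hits fall short of that in this replicate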
CSC inhib: cancer stem cell viability inhibitors, primary screen, luminescence; cancer stem cell-like cells viability; 1.1% of 300,000 active; inhibition, % at 7.5 µM; AID 2717, 2010;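 active = mean at 75% or more and at least half the replicates too; inconclusive = mean and replicates disagree; tested in HMLE shEcad cells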;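 also: 0% = median of negative and 100% = median of positive control wells; the first replicate is given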
Rce1 inh: yeast Rce1p protease inhibitors, primary screen, biochemical, fluorescence, cell-free homogeneous. CAAX prenyl protease 2 (Saccharomyces cerevisiae (strain ATCC 204508 / S288c)), Q03530. yeast membranes, quenched prenylated peptide cleavage fluorescence. calls only. 0.27% of 290,000 active. AID 2563, 2010;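 active = fall in fluorescence gain of 50% or more versus controls, with final raw signal at or below 3038400; inconclusive = same 50% fall but final raw signal above 3038400; inactive = fall in fluorescence gain under 50%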;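 also: plate controls were neutral control wells for no effect and wells lacking membranes for full effect; tested at 10 µM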
Target sequence (Q03530 whole entry, looked up): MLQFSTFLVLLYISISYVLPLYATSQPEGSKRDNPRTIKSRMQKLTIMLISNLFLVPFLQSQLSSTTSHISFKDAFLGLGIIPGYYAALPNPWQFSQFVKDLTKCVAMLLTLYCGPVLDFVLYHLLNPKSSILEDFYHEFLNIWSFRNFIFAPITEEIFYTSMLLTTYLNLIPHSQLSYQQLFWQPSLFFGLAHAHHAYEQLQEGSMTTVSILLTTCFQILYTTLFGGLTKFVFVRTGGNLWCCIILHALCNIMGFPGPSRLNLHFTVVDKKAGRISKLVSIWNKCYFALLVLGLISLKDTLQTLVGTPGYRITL
eIF4H inh retest: further read-out of eIF4H inh, marked with its call; inhibition, %; compound at 20 µM; confirmation average;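 mean of two retest wells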
PABP FP inh retest: also measured in PABP FP inh; calls as there; inhibition, %; compound at 20 µM; confirmation repeats;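 mean of two retest wells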
MT1-MMP act inh RFP: also measured in MT1-MMP act inh; calls as there; RFP signal change, %; measured here: RFP expression control read;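 0 = vehicle wells; hits needed this value within 50% of zero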
* hit, by the source's call; i = inactive; ? = inconclusive; · = no result given.

SMILES	Env fusion inh	PABP FP inh	eIF4H inh	MT1-MMP act inh	MT1-MMP act inh RFP	UUG fidelity	CSC inhib	Rce1 inh	others
CCOC(=O)C1CCN(C(=O)c2ccc(OCC(=O)Nc3cccc(C(F)(F)F)c3)cc2)CC1	15	30	3	-2	-9	9	-25	i
CCCCN(CCCC)C(=O)c1cn(CC)c2cc(N3CCN(C)CC3)c(F)cc2c1=O	2	6	5	-5	1	-2	-10	i
COc1cc(C(=O)OCC(=O)NCCC2=CCCCC2)cc(OC)c1OC	8	·	·	1	4	-4	·	·
O=C1OC(N2CCN(C/C=C/c3ccccc3)CC2)c2ccccc21 (stereo not given)	23	-13	-6	-5	1	-12	-6	i
O=C(COc1ccc2c3c(c(=O)oc2c1)CCC3)NCc1ccccn1	-22	2	4	4	4	-13	-2	i
O=c1ccc(-c2ccc(S(=O)(=O)N3CCCCC3)o2)n[nH]1	-12	2	-8	1	3	-18	-4	i
Cc1ccc(S(=O)(=O)N2CCCCC2)cc1NC(=O)COC(=O)C1CC1	9	·	·	0	1	-18	·	·
CCn1cc(C(=O)N2CCN(c3ccccc3)CC2)c(=O)c2cc(S(=O)(=O)N3CCOCC3)ccc21	-11	-2	-15	1	1	-16	-10	i
CC12CC(NC(=O)N1c1cccc(C(=O)N3CCN(c4ccccn4)CC3)c1)c1ccccc1O2 (stereo not given)	-10	-6	-10	4	-3	-3	-16	i
C[N+](C)(C)CCNC(=O)c1cc[n+](Cc2ccccc2)c(/C=N/O)c1	1	54*	3	-5	3	-16	-15	i	eIF4H inh retest=9;PABP FP inh retest=73*
Cc1cc(C)c(C#N)c(Nc2cccc(Br)c2)n1	-9	-16	-3	-3	-4	-24	-7	i
CCOc1ccccc1N(C(=O)c1snc(C(N)=O)c1N)C(C(=O)NCCC(C)C)c1ccco1 (stereo not given)	·	2	4	-9	-5	5	-5	i
COc1ccccc1NC(=O)c1nc[nH]c1C(=O)Nc1ccccc1OC	-81	0	-4	2	0	-7	13	i
O=C1OC(N2CCN(c3ccccn3)CC2)c2ccccc21 (stereo not given)	·	9	0	5	0	1	12	i
CCN(CC)c1ccc(/C=C2\C(=O)c3ccc(C(=O)O)cc3C2=O)cc1	-2	-6	?	-27	4	·	-1	·
COCCNC(=O)c1onc(CSc2ccc(F)c(F)c2)c1C(=O)O	16	5	-12	2	5	2	0	i
COc1ccc(CN2CC[C@@H]3CN(C(C)=O)[C@H](c4ccccc4Br)C[C@@H]32)cc1	-4	·	·	1	-1	1	·	·
O=C(O)c1ccc(Sc2nnc3ccccn23)c([N+](=O)[O-])c1	2	-4	-11	4	4	-22	-7	i
COc1ccc(CCNC(=O)c2ccc(CNS(=O)(=O)c3ccccc3)cc2)cc1OC	·	0	2	7	6	·	-2	i
C[N+]1(CC(=O)OC2CCCCCCCCCCC2)CCCC1	23	9	-3	-27	-22	·	67	i

Compounds from the list above containing fluorine, in the order listed:
SMILES	Env fusion inh	PABP FP inh	eIF4H inh	MT1-MMP act inh	MT1-MMP act inh RFP	UUG fidelity	CSC inhib	Rce1 inh	others
CCOC(=O)C1CCN(C(=O)c2ccc(OCC(=O)Nc3cccc(C(F)(F)F)c3)cc2)CC1	15	30	3	-2	-9	9	-25	i
CCCCN(CCCC)C(=O)c1cn(CC)c2cc(N3CCN(C)CC3)c(F)cc2c1=O	2	6	5	-5	1	-2	-10	i
COCCNC(=O)c1onc(CSc2ccc(F)c(F)c2)c1C(=O)O	16	5	-12	2	5	2	0	i

(list continues)
SMILES	Env fusion inh	PABP FP inh	eIF4H inh	MT1-MMP act inh	MT1-MMP act inh RFP	UUG fidelity	CSC inhib	Rce1 inh	others
CSc1cccc(NC(=O)C2CCN(C(=O)c3ccccc3C)CC2)c1	·	-3	-6	0	-2	8	-10	i
C[C@H]1C=C(C(=O)NC2CC2)O[C@@H](OCc2ccc(CO)cc2)C1	-8	-8	-14	4	0	-20	13	i
O=C(O)/C=C/C(=O)NCCc1cccc(Cl)c1	0	3	-11	-1	3	·	4	i
O=C(Nc1ccncc1)C1CCN(S(=O)(=O)c2ccc(Cl)cc2)CC1	9	·	·	2	-17	·	37	i
COc1ccc(CNC(=O)Nc2cc(C)ccc2C)cc1	10	-5	4	-2	3	·	7	i
Cn1c(N)c(C(=O)COC(=O)c2ccc3c(c2)OCCO3)c(=O)n(C)c1=O	-12	0	4	4	2	-5	-11	i
COC(=O)c1nc2cc3c(cc2c(C)c1C(=O)OC)OCO3	-65	-10	-4	8	5	-9	-1	i
CCOc1ccc(S(N)(=O)=O)cc1-c1nc2c(C(C)(C)C)nn(C)c2c(=O)[nH]1	-4	-4	1	1	-5	3	2	i
COc1ccc(S(=O)(=O)Nc2ccc(S(=O)(=O)N3CCOCC3)cc2)cc1C	·	-2	-6	4	3	-7	52	i
COc1ccc(C(=O)N=c2nc3ccccn3s2)cc1	-156	3	1	6	-4	-41	29	i
COC(=O)CC1SC(=O)NC1=Nc1ccc(O)cc1 (stereo not given)	·	1	-15	-1	6	-5	-4	i
CCC(C)(C)NC(=O)C(c1ccc(OC)cc1)N(C(=O)CCC(=O)Nc1cc(C)on1)c1ccc(OC)c(OC)c1 (stereo not given)	-18	2	-16	-4	0	5	-28	i
CCCCCC(=O)N/N=C(\C)c1ccccn1	17	-7	0	3	-2	8	16	i
O=C(CN1CCN(c2ccc(O)cc2)CC1)Nc1ccccc1C(=O)NCCc1ccccc1	36	·	·	-3	2	-7	·	·
Cc1cc(NC(=O)c2c(Cl)c(C)nn2C)no1	·	5	-1	3	3	-3	-7	i
COC(=O)c1ccc(NC(=S)NN2CCOCC2)cc1	12	2	4	2	1	·	-4	i
O=c1oc2ccccc2cc1-c1nnc(NCc2ccco2)s1	-359	21	5	-8	0	-24	14	i
CCOC(=O)C1=C(OCc2ccc(Cl)cc2)C2C=C(C)C=CC2N=C1 (stereo not given)	9	-9	-8	-2	2	-10	-5	·
O=C(Cc1c(O)c2ccccc2[nH]c1=O)NCc1ccccc1F	·	-5	-18	2	4	-40	7	i
CC12CN(Cc3ccccc3)CC(C)(CN(Cc3ccccc3)C1)C2=O	-1	-2	-8	-2	-2	·	-5	i
COc1cc(OC)cc(C(=O)NCCCCCCNC(=O)c2cc(OC)cc(OC)c2)c1	-2	·	·	-3	-1	-14	·	·
COc1cccc(C(NC(C)=O)c2nc(-c3ccc(N(C)C)cc3)cs2)c1 (stereo not given)	17	·	·	-4	-6	-19	·	·
Cc1ccc(C(=O)N2CCN(C)CC2)cc1S(=O)(=O)N1CCOCC1	9	3	-1	1	1	-13	-5	i
Cc1cccc(NC(=O)CSc2nc(-c3ccccc3)c(C#N)c(=O)[nH]2)c1C	·	1	4	1	1	·	-3	i
CCCCN1C(=O)CC(C(=O)O)C1c1ccc(OC)cc1 (stereo not given)	-89	18	-2	-2	6	-34	-2	i
COc1cc(CNC(=O)c2cc(-c3cc(Cl)ccc3C)n[nH]2)cc(OC)c1	-21	·	·	0	-2	-15	·	·
CCCCCCCC(=O)N/N=C/c1ccncc1	11	-3	2	6	0	-16	·	i
CC(C)CN(C(=O)C1=COCCO1)c1c(N)n(Cc2ccccc2)c(=O)[nH]c1=O	7	·	·	-3	5	-10	·	·
CNS(=O)(=O)c1ccc(C(=O)NCC(=O)NCC2COc3ccccc3O2)cc1 (stereo not given)	5	·	·	2	-3	-19	·	·
CCN1CCC2(CC1)N=C(c1ccc(F)cc1)C(=S)N2C(=O)c1ccc(C)cc1	6	-3	-6	1	-1	·	5	i
C/C(=C(\C#N)C(=O)NCc1ccccc1)N(C)C	·	13	2	-2	-2	-7	7	i
Cc1c(C)c2c(OCC(=O)N[C@@H](Cc3ccccc3)C(=O)O)cc3c(c2oc1=O)CCC(C)(C)O3	·	8	3	16	5	54	-10	i
CC(=O)c1cccc(N(C(=O)Cn2nnc3ccccc32)C(C(=O)NC2CCCCC2)c2cn(C)nc2C)c1 (stereo not given)	·	-4	-7	-1	4	·	-6	i
Cc1nnc2ccc(N3CCC4(CC3)OCCO4)nn12	-15	-6	-7	4	5	-15	-13	i
COc1ccc(C(=O)N(C)c2ccccc2C(=O)NCCc2ccccc2)cc1	23	-3	-4	-1	-8	-9	-12	i
N#CC1(c2ccccc2)CCCN1C(=O)c1ccco1 (stereo not given)	-49	3	-3	-2	0	-3	6	i
O=[N+]([O-])c1cc(C(F)(F)F)ccc1SCC(O)CO (stereo not given)	-24	-3	-9	·	·	·	-1	i
Cc1ccc(S(=O)(=O)NCC(c2ccco2)N2CCc3ccccc3C2)cc1 (stereo not given)	-12	·	·	-1	0	4	4	i
CN1CCCN(C(=O)CNC(=O)c2ccccc2Br)CC1	-1	·	·	-1	4	-20	4	·
O=C(N/N=C/c1ccc(Br)cc1)c1cc[n+](Cc2ccccc2)cc1	9	18	-10	5	4	3	-2	i
COc1c2c(cc3oc(=O)c4c5ccc(O)cc5oc4c13)OC(C)(C)CC2	·	·	·	15	2	-11	-10	i
COc1ccc(OCC(=O)Nc2nc3cc4c(cc3s2)OCCO4)cc1	-9	·	·	-2	-1	-9	8	·
COc1ccc(C(CNC(=O)c2cccc(S(=O)(=O)N3CCc4ccccc43)c2)N(C)C)cc1 (stereo not given)	-21	·	·	2	-2	-7	-3	·
O=S(=O)(c1ccccc1)c1cnc(-c2ccccc2)nc1N1CCCCC1	16	4	2	-5	-5	·	11	i
CSc1ncccc1C(=O)OCC(=O)c1ccc2c(c1)NC(=O)CO2	-16	-8	-10	1	3	·	-2	i
O=C(CSc1nc2ccccc2c(=O)[nH]1)Nc1ccc(S(=O)(=O)N2CCCC2)cc1	0	-3	-3	-2	-4	·	9	i
O=S(=O)(N/N=C\c1cccnc1)c1ccccc1	·	-3	-1	-3	6	·	-4	i
CC(C)(C)OC(=O)C[C@H]1C/C=C\C[C@@H](CC(=O)N(CCO)Cc2ccccc2)C(=O)NCCOC1=O	-22	·	·	4	8	-16	-10	·
Cc1noc(C)c1COC(=O)c1ccc(N(C)C)cc1	0	8	-2	1	-2	·	1	i
CC(=O)Nc1ccc(Oc2nc(C)cc(C)n2)cc1	·	-9	-3	1	0	-12	2	i
CC(=O)c1cccc(NC(=O)C2COc3ccccc3O2)c1 (stereo not given)	-9	4	-14	0	-2	-22	-4	i
O=C(CSCc1ccc(F)cc1)N1CCOCC1	-23	-12	-2	1	2	-3	-13	i
Cc1[nH]c2ccccc2c(=O)c1C(=O)/C=C/c1ccccc1	-12	-2	11	-13	-37	-14	61	i
CC(=O)Nc1ccc(C2=NN(c3ccccc3)C(c3cccs3)C2)cc1 (stereo not given)	-11	-8	-2	2	-7	·	15	i
COc1ccc(Nc2nc(NC(C)(C)C)nc(N3CCCC3)n2)c(OC)c1	36	2	6	-13	-3	·	26	i
N=C1C(c2nc3ccccc3[nH]2)=C(O)CN1c1ccccc1	·	-7	17	6	7	-3	1	i
O=C1CC(c2ccccc2)=Nc2ccc(Br)cc2N1	-49	1	-12	12	-4	·	-10	i

Not all compounds are listed (hit frequency here may not be typical).
